# Assay outcomes from PubChem.
# CDC25B-CDK2 inh: human CDC25B-CDK2/CyclinA binding inhibition | P30305+P24941 | HTRF CDC25B-CDK2/CyclinA binding, anti-His/anti-Flag; hits give high values | z-score (no concentration beside the values) | hit rate 0.72% among 94,000 | AID 1259370;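 note: score is relative to mean and SD of negative controls; strong numbers were not always called active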
# TAR Tat displ: HIV-1 TAR-Tat binding disruption | HIV-1 TAR RNA, Tat peptide displacement FRET; hits give high values | z-score (no concentration beside the values) | hit rate 0.6% among 100,000 | AID 1259389;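 note: score is relative to mean and SD of negative controls; some compounds called inactive have numbers as strong as hits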
# * = called active by the depositor; nt = not tested or not shown.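 Rule for the calls: active = z-score from 3 up in half or more of its runs; inactive = the rest.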 Rows are unselected (roughly 0.87% active in at least one column).
SMILES,CDC25B-CDK2 inh,TAR Tat displ
CCOC(=O)c1cc(-c2ccc(S(=O)(=O)Nc3ccccc3Cl)s2)on1,nt,-0.14
CN(C(=O)c1c2c(nc3ccccc13)C(=O)N(C1CCCCC1)C2)c1ccccc1F,nt,0.61
CC1=C(c2ccccc2)S(=O)(=O)N=C1N1CCN(C2CCCCC2)CC1,-1.1,0.8
COc1ccc(/C=C/c2nc(C#N)c(NCCN3CCOCC3)o2)cc1OC,-2.2,1.4
Cc1cccc(N2CCN(S(=O)(=O)c3c(C)nc4sccn4c3=O)CC2)c1C,-0.81,0.77
CCCCCOC(=O)c1c(C)oc2ccc(NS(=O)(=O)c3ccc(OC)cc3)cc12,-0.39,0.34
N#C/C(=C\Nc1ccc(OC(F)(F)F)cc1)c1nc2ccccc2[nH]1,-1.8,nt
O=C(/C=C/C(=O)Nc1cc(Cl)cc(Cl)c1)Nc1cc(Cl)cc(Cl)c1,-0.99,nt
CC1(C)C2CC[C@]3(C)C(C(=O)C=C4[C@H]5C[C@@](C)(C(=O)O)CC[C@]5(C)CC[C@]43C)[C@@]2(C)CC[C@@H]1O (some centres not stated),nt,0.86
CCOC(=O)c1c(NC(=O)Cn2nc([N+](=O)[O-])c(Cl)c2C)sc2c1CCC(C)C2 (configuration not stated),nt,1.8
CCN1CCCC1CNC(=O)CN1C(=O)CSc2nc(C)cc(C)c21 (configuration not stated),-0.54,-0.53
Nc1ncc(Br)cn1,-2.3,nt
CCCCN(c1nc(C)cc(OC)n1)S(=O)(=O)c1ccc(C)cc1,0.23,-0.07
CCOC(=O)c1cc(-c2ccccc2)sc1NC(=O)c1cccc([N+](=O)[O-])c1,-1.3,nt
CCOc1cc(-c2ccc(OC(=O)c3ccc(C)cc3)c(OC)c2)cc(=O)c2c(C)oc(C)c12,-2.4,1.9
Cc1nc2nc(NCc3ccc(C(C)C)cc3)nn2c(C)c1Cl,-0.53,2.4
CSc1nc2c(c(Nc3ccc(N(C)C)cc3)n1)CCC2,-1.9,0.66
O=C(CSc1nc2ncccc2[nH]1)N1CCN(c2ccccc2F)CC1,nt,0.56
Cc1cc(C)n(-c2nc3ccccc3c3nc(-c4cccnc4)nn23)n1,0.35,nt
CC(Sc1nc2sc3c(c2c(=O)n1-c1ccccc1)CC(C)(C)OC3)C(=O)O (configuration not stated),-3.2,nt
O=c1c2c(nc(SCCO)n1C1CCCC1)-c1ccccc1CC21CCCC1,-0.43,1.6
CSc1nn2c(=O)c(-c3ccccc3)nnc2s1,-2.4,2.3
C=CCNc1nc(-c2ccc(C)cc2)nc2ccccc12,0.27,nt
Cc1cc(N2C(=O)C=CC2=O)no1,-0.93,nt
Fc1ccc(Cc2cn3cc(-c4ccc(Br)cc4)nc3s2)cc1,-3.5,nt
CN(C)S(=O)(=O)N1CCC(c2nnnn2-c2ccccc2)CC1,-0.77,2.8
CCC12CN3CC(C)(CN(C1)C3c1ccc(OC)c(OC)c1)C2=O (configuration not stated),-1,0.04
O=C(c1ccc(CNc2c(NC3CCCCC3)c(=O)c2=O)cc1)N1CCCC1,-0.56,-0.15
CCOC(=O)c1sc2nc(-c3ccc(C)cc3)c(NC(C)(C)C)n2c1C,nt,1.2
Cc1nnc2c(NCCCN3CCN(c4ccccc4F)CC3)nc3ccccc3n12,-1.2,1.8
COc1cc(NC(=O)C2CC(=O)N=C(N)S2)c(OC)cc1Cl (configuration not stated),-0.39,0.04
O=C1CCN2N=C(c3ccccc3)CC=C2O1,-0.53,nt
COc1ccccc1-c1nnc(SCC(=O)c2ccc(Cl)cc2)n1C,-0.98,0.51
CCc1c(C)nc2nncn2c1Nc1ccc(C)c(C)c1,-1.5,-0.28
CCN1CCCC1CNC(=O)Nc1cn(CC(C)C)c(=O)c2ccccc12 (configuration not stated),nt,-0.78
CCN1c2cc(C)ccc2-n2cccc2C12CCN(C(=O)NC)CC2,nt,0.55
O=C(NCc1ccco1)C1CCN(c2ncnc3c2nc2n3CCCCC2)CC1,nt,0.08
Cc1cc2c(cc1NS(=O)(=O)c1ccc(N3CCCC3=O)cc1)n(C)c(=O)c(=O)n2C,nt,-0.65
COC(=O)c1c(NC(=O)Nc2cccc(Cl)c2)sc2c1CCCC2,0.05,-0.37
Cc1ccc(N2C(=O)c3ccccc3C2Nc2cccnc2)nc1 (configuration not stated),12*,-0.5
COCCCNC(=O)C1c2ccccc2C(=O)N1Cc1ccco1 (configuration not stated),nt,0.54
Cn1c2ccccc2n2c(SCC(=O)O)nnc12,-0.84,nt
Cc1[nH]c2ccccc2c1C(=O)C(=O)N1CCc2ccccc21,-0.9,-0.12
NC(=O)c1ccc[n+]([C@@H]2O[C@H](COP(=O)([O-])OP(=O)(O)OC[C@H]3O[C@@H](n4cnc5c(N)ncnc54)[C@H](O)[C@@H]3O)[C@@H](O)[C@H]2O)c1,nt,1.9
O=[N+]([O-])c1coc2ccc(OS(=O)(=O)c3cc(C(F)(F)F)cc(C(F)(F)F)c3)cc12,0.06,nt
CCCc1nn2c(=O)cc(CSc3nc(-c4ccco4)nc4cc(=O)[nH]n34)nc2s1,nt,0.67
O=C(Nc1sc2c(c1C(=O)Nc1ccccc1)CCCCC2)c1cccs1,-1.4,1.3
CC(C)Cn1cnc2ccc(C(=O)O)cc2c1=O,nt,-5.1
CCSc1ncc(Cl)c(C(=O)Nc2sc3c(c2C(=O)NCC2CCCO2)CCC3)n1 (configuration not stated),-2.8,2.5
CC1=C(C(N)=O)C(c2ccc(F)cc2)n2nnnc2N1 (configuration not stated),-2.4,2.9

# Continuation:
SMILES,CDC25B-CDK2 inh,TAR Tat displ
Cc1c(-c2ccccc2)c(CN2CCN(C)CC2)n2ccccc12,-2.2,-5.6
COc1ccc(N2C(=O)c3cccnc3C2Nc2ccc(Cl)cc2)cc1 (configuration not stated),nt,-1.9
COc1ccc(-c2cc(N)n(S(=O)(=O)c3ccccc3)n2)cc1,-1.5,-1.6
CCCNC(=O)Cn1nc(C(F)(F)F)c(Br)c1C,-0.48,1.6
Cc1ccccc1-c1ccnc2c(-c3ccc(F)cc3)c(C)nn12,-1.1,-0.9
CN1CCN(Cc2cc(COCc3ccccc3)c3cccnc3c2O)CC1,0.25,nt
O=C(c1ccco1)N1CCN(c2cnn(-c3nc4ccccc4s3)c(=O)c2Cl)CC1,-1.4,0.17
Nc1ccc(Oc2ccc3nc(-c4ccc(N)cc4)[nH]c3c2)cc1,-1.3,1.1
CC1CCC(NC(=O)C2CCN(S(=O)(=O)c3ccc4c(c3)C(C)(C)C(=O)N4C)CC2)CC1 (configuration not stated),-0.82,1.2
O=C(Nc1ccc(F)cc1)c1cc2ccccc2c(=O)s1,-0.97,1.5
CC(NC(=O)CSc1ncnc2c1sc1cccc(F)c12)c1ccc2c(c1)OCCO2 (configuration not stated),nt,-1.7
CC(C)C[C@H](NC(=O)c1ccc(Cl)cc1Cl)C(=O)O,-1.5,nt
Cc1cccc(NC(=O)c2ccc([N+](=O)[O-])s2)n1,-2.4,0.65
Cn1c(=O)c2c(-c3ccccc3)c(NCCc3ccccc3)oc2n(C)c1=O,nt,0.76
NC(=O)C1CCN(C(=O)c2ccc(C#CC3(O)CCCCC3)cc2)CC1,-1,nt
CCOC(=O)c1ccc(NS(=O)(=O)c2ccc(/C=C/c3onc(C)c3[N+](=O)[O-])cc2)cc1,nt,0.47
CCOc1cc(C)c(S(=O)(=O)N2CCc3cc4ccccc4nc32)cc1C,-2.1,-0.1
CC(=O)N1c2ccc(S(=O)(=O)N3CCCC3)cc2CC1C(=O)NC1CC1 (configuration not stated),nt,1.4
Clc1ccccc1-n1nc2ccc3nonc3c2n1,-0.38,1.1
COc1ccc(C2C3C(=O)N(c4ccc(Br)cc4)C(=O)C3N3CCCN23)cc1 (configuration not stated),-0.44,-1.3

# As entered above.
# For TAR Tat displ, `Cc1ccccc1-c1ccnc2c(-c3ccc(F)cc3)c(C)nn12` reads -0.9
# For TAR Tat displ, `CCc1c(C)nc2nncn2c1Nc1ccc(C)c(C)c1` reads -0.28
# For TAR Tat displ, `Cc1cccc(NC(=O)c2ccc([N+](=O)[O-])s2)n1` reads 0.65

# Further entries.
SMILES,CDC25B-CDK2 inh,TAR Tat displ
CC1=C(c2cccc(Br)c2)S(=O)(=O)NC1=NCc1ccc(N(C)C)cc1,-0.39,-1.4
C=CCN(c1ccccc1)S(=O)(=O)c1cc2c(cc1C)N(C)CCO2,nt,0.59
O=C(O)COCC(=O)Nc1cc(C(F)(F)F)ccc1N1CCCC1,-0.22,nt
O=C(NCCC1=CCCCC1)c1sc(=S)n2c1[nH]c(=O)c1ccccc12,nt,1.3
Cc1ccc(NC(=S)NN(C)C)cc1,-0.4,nt
CCOC(=O)Cn1c(=O)oc2cc(S(=O)(=O)N3c4ccccc4CC3C)ccc21 (configuration not stated),-1.6,nt
CCCOC(=O)c1cccc(-n2nnc3c(sc4nc(C)ccc43)c2=O)c1,-1.1,1.3
CC(C)CNc1nc(Oc2ccc(OCc3ccccc3)nn2)nc(N2CCOCC2)n1,-1.1,1.1
CN1C(=O)C2CCCCN2c2ccc(C(=O)NC3CC3)cc21 (configuration not stated),nt,0.03
COCCOC(=O)c1c(C)oc2c1cc(NS(=O)(=O)c1ccc(Cl)c([N+](=O)[O-])c1)c1ccccc12,0.54,nt
Cc1ccc(Nc2nc(N)nc(CN3CCN(Cc4ccc5c(c4)OCO5)CC3)n2)cc1C,nt,-0.72
CCc1cc2c(cc3c(=O)n(CC(=O)NC(C)C)ncn32)s1,-0.66,0.35
O=C(CCS(=O)(=O)c1ccc2c(c1)CCN2C(=O)C1CC1)Nc1ccc(F)cc1Cl,nt,0.75
O=[N+]([O-])c1cc(C2OCC3(CO)COC(c4csc([N+](=O)[O-])c4)N23)cs1 (configuration not stated),-1.8,nt
O=C(c1cc2ccccc2c(=O)o1)N1CCCc2ccccc21,-1.4,nt
Cc1ccc(-c2nnc3ccc(SC(C)C(=O)O)nn23)cc1 (configuration not stated),-1.5,nt
Cn1c(O)c(C2=Nc3ccccc3SC(c3cccs3)C2)c(=O)n(C)c1=O (configuration not stated),-1.7,1.7
CCS(=O)(=O)c1ncc(Cl)c(C(=O)Nc2ccc(Cl)cc2)n1,-1.1,2
O=C(O)/C=C\C(=O)Nc1ccccc1Oc1ccc(Cl)cc1Cl,-0.96,nt
COc1ccc(NC(=O)Nc2c[nH]c(=O)[nH]c2=O)cc1,-2.1,-0.8

# Taken from the listing, three compounds:
SMILES,CDC25B-CDK2 inh,TAR Tat displ
CCS(=O)(=O)c1ncc(Cl)c(C(=O)Nc2ccc(Cl)cc2)n1,-1.1,2
O=C(O)/C=C\C(=O)Nc1ccccc1Oc1ccc(Cl)cc1Cl,-0.96,nt
COc1ccc(NC(=O)Nc2c[nH]c(=O)[nH]c2=O)cc1,-2.1,-0.8

# (more compounds)
SMILES,CDC25B-CDK2 inh,TAR Tat displ
Cc1cc(S(=O)(=O)[C@H]2CS(=O)(=O)C[C@@H]2NCCc2ccc(F)cc2)ccc1F,-0.11,-1.4
CC(=O)N1CCc2cc(S(=O)(=O)NC(CC(C)C)C(=O)Nc3cc(C)ccn3)ccc21 (configuration not stated),-0.54,1.2
CC(C)CCNC(=O)CCCN1C(=O)CCn2nc(-c3cccn3C)cc21,nt,0.37
CC(C)NC(=O)CC1Oc2ccccc2NC1=O (configuration not stated),-0.64,nt
O=C(c1ccc2c(c1)OCO2)N(Cc1ccco1)C1(C(=O)NC2CCCC2)CCCCC1,-0.67,nt
CCOC(=O)c1noc2nc[nH]c(=O)c12,-1.3,0.63
COCCNC(=O)Nc1cn(CC(C)C)c(=O)c2ccccc12,nt,0.55
COc1ccc2c(c1)C(C)=CC(C)(C)N2C(=O)CSc1nnc(C)s1,-1.8,0.47
O=C(C1=Cc2ccccc2OC1)N1CCN(c2ccccn2)CC1,nt,0.7
CC(C)N(Cc1nc(-c2ccccc2)no1)C(=O)N1CCOCC1,-1.6,0.93

# 3 records drawn at random from those above:
SMILES,CDC25B-CDK2 inh,TAR Tat displ
O=C(C1=Cc2ccccc2OC1)N1CCN(c2ccccn2)CC1,nt,0.7
O=C(c1ccc2c(c1)OCO2)N(Cc1ccco1)C1(C(=O)NC2CCCC2)CCCCC1,-0.67,nt
COc1ccc2c(c1)C(C)=CC(C)(C)N2C(=O)CSc1nnc(C)s1,-1.8,0.47

# (continued)
SMILES,CDC25B-CDK2 inh,TAR Tat displ
O=C(CSCc1cc(=O)n2ccsc2n1)Nc1ccc(Cl)cc1,nt,-0.09
CS(=O)(=O)c1ncc(Cl)c(C(=O)N(Cc2ccc(Cl)cc2)Cc2ccco2)n1,2.1,2.5
O=S(=O)(NCCc1csc2nc(-c3ccc(F)cc3)nn12)c1ccccc1F,nt,0.88
CC(=O)Oc1cccc(C2OC(c3ccccc3C)=NN2C(C)=O)c1OC(C)=O (configuration not stated),nt,1.7
CCOC(=O)CS(=O)(=O)c1cc2c(cc1N)n(C)c(=O)c(=O)n2C,nt,0.29
O=C(Oc1ccc2c(=O)c(Oc3ccccc3Cl)coc2c1)c1ccco1,-0.35,0.32
Cc1ccc(S(=O)(=O)N2CCN(S(=O)(=O)c3ccccc3)C2c2ccc(N(C)C)cc2)cc1 (configuration not stated),-0.88,1.7
C=CCOC(=O)C1=C(C)Nc2nc(SCC=C)[nH]c(=O)c2C1c1ccccc1C (configuration not stated),-0.12,1.1
CCCCS(=N)(=O)CCC(N)C(=O)O (configuration not stated),-0.48,nt
O=C(O)CCC(=O)CCC(=O)c1ccccc1,-0.48,1.3
Cc1nc(N2CCC(C)CC2)c2c(C)c(C(=O)N3CCN(c4ccccn4)CC3)sc2n1,-0.96,nt
Cc1ccc(N2CC(O)=C(c3nc4ccccc4n3C)C2=N)cc1,-1.9,1.4
CCC(C)NC(=O)CN1c2ccc(Br)cc2-c2ccccc2S1(=O)=O (configuration not stated),-1.3,0.65
O=C(CCC(=O)N1CCOc2ccc(Cl)cc21)N1CCN(c2ncccn2)CC1,-1.4,-0.55
CCOc1ccc(S(=O)(=O)n2nc(C)c(S(=O)(=O)N3CCC(C)CC3)c2C)cc1,nt,-0.31
Cn1c(=O)c2c(-c3ccc(Cl)cc3)n(-c3ccc(N)cc3)cc2n(C)c1=O,-2.8,-0.91
